MCF10A rereplic = inducers of DNA re-replication in MCF 10A breast cells. MCF 10A DNA re-replication, Hoechst nuclear intensity, 48 h. Potency, µM (series often up to 46.1 µM), inactives show top-dose activity, positive = re-replication, most hits filed as activators. 2.9% of 350,000 active. AID 624296; also: potency is read from the fitted curve at half-maximal effect; % of control where 0% means no effect; nearly all actives have a fitted effect of over 50% in size
SW480 rereplic = induces DNA re-replication in SW480 colon adenocarcinoma cells. 1.8% of 340,000 active. Potency, µM (titrated, usually from 46.1 µM), inactives show at the top dose re-replication activation, hits mostly activators. SW480 DNA re-replication, Hoechst DNA content imaging, 48 h; also: potency is read from the fitted curve at half-maximal effect; % of control where 0% means no effect; nearly all actives have a fitted effect of over 55% in size
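Treated cells incubate 48 hr (37 C, 5% CO2), are stained 40 min with Hoechst, and nuclear fluorescence is enumerated; a rise in nuclei with high DNA signal marks re-replication.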
KB-V1 MDR tox = KB-V1 MDR subline cytotoxicity | 3.4% of 400,000 active | AID 1347076 | Potency, µM (highest dose often 46.1 µM), without a hit: top-dose activity change, negative = cytotoxicity, hits mostly cytotoxic | KB-V1 MDR cells viability, CellTiter-Glo, 72 h; also: potency is read from the fitted curve at half-maximal effect; % is scaled to controls: 0 for no effect and ±100 for the full control effect; nearly all actives have a fitted effect of over 60% in size
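qHTS viability screen in drug-selected KB-V1 MDR cells: 72 h compound treatment at 37 degrees C, ATP luminescence end point.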
WRN helicase inh = blocks human WRN helicase. WRN helicase unwinding, fluorescent forked duplex, kinetic. Potency, µM (series often up to 114 µM), for the others: at the top dose activity change, negative = inhibition, actives largely listed as inhibitors. 0.46% of 360,000 active; also: potency is read from the fitted curve at half-maximal effect; % is scaled to controls: 0 for no effect and ±100 for the full control effect; nearly all actives have a fitted effect of over 55% in size
Target sequence (Q14191 whole entry, looked up): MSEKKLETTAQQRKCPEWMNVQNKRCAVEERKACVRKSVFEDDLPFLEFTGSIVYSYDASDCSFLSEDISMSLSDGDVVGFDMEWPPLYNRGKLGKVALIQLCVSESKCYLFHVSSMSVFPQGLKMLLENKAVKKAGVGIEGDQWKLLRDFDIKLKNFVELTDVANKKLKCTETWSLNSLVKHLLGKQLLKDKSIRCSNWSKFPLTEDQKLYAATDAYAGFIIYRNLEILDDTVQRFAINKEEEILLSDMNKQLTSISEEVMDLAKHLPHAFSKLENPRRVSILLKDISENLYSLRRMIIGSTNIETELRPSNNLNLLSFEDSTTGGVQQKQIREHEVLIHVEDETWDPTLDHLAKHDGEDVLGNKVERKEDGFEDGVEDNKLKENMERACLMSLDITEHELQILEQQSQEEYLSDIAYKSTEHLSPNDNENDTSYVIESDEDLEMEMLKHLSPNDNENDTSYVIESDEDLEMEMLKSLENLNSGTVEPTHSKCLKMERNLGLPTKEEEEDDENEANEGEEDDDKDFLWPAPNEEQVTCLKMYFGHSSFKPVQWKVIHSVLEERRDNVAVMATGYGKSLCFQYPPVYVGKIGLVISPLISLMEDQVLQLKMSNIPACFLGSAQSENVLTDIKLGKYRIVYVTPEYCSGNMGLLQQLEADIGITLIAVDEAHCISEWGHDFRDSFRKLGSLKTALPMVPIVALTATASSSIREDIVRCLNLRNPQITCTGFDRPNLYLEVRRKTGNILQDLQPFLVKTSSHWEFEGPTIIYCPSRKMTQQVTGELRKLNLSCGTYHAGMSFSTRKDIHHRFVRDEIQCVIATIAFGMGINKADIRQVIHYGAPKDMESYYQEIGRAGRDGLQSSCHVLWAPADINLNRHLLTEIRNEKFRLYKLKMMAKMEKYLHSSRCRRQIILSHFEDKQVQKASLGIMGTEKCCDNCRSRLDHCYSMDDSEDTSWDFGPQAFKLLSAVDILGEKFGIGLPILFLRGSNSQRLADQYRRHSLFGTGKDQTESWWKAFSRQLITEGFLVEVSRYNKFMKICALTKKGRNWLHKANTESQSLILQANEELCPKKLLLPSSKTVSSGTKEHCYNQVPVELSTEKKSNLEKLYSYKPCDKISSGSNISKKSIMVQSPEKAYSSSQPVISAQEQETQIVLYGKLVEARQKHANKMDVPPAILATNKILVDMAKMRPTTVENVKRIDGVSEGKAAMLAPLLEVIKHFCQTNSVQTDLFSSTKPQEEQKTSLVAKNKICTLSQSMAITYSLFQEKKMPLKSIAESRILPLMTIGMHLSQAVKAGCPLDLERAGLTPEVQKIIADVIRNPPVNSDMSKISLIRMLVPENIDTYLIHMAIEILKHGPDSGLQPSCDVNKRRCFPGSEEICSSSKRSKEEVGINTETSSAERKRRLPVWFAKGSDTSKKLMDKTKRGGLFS
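Enzyme (20 nM final) and test compound sit together 15 min at room temperature before substrate addition. Substrate is a single-forked duplex oligonucleotide (100 nM) labelled with fluorophore and quencher, with 2 mM ATP; helicase unwinding raises red fluorescence, read kinetically.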
IL1B secr inh = inhibitors of inflammasome signaling (IL-1 beta secretion); 4.7% of 360,000 active; THP-1 LPS/ATP IL-1B secretion, AlphaLISA, 16 h; active compounds read low; activity change, % at 57.5 µM; in the data active = activity change below about -50%; inconclusive = mostly about -30% to -49%; also: % is scaled to controls: 0 for no effect and ±100 for the full control effect
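Secreted IL-1B measured by AlphaLISA bead assay after 16 h compound exposure of THP-1 cells; compounds (final up to 57.5 uM) added 1 h before LPS (250 ng/mL) and ATP (1.25 mM) stimulation; lower signal means less secretion.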
KB-3-1 cytotox = KB-3-1 parental cell cytotoxicity. KB-3-1 viability, CellTiter-Glo ATP luminescence, 72 h. Potency, µM (series often up to 46.1 µM), inactives show top-dose activity change, negative = cytotoxic, most hits filed as cytotoxic. 1.4% of 400,000 active; also: potency is read from the fitted curve at half-maximal effect; % is scaled to controls: 0 for no effect and ±100 for the full control effect; nearly all actives have a fitted effect of over 60% in size
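Parental KB-3-1 adenocarcinoma cells in phenol-red-free DMEM with 10% FBS were pin-treated with compounds at several concentrations, incubated 72 h at 37 °C, and viability read by CellTiter-Glo luminescence; concentration-effect curves were fitted after normalization.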
An asterisk follows results filed as active; & = joins results of further samples; ! = repeats disagree; [ ] = remark or other dose. Unless noted, calls follow the shape of the dose curve; as a rule, active = well fitted curve in the direction sought with a large enough effect; inconclusive = small, poorly fitted or top-dose-only effect, or another doubt; inactive = no such curve, though single readings can be large; an effect the other way counts as inactive or inconclusive. The list is partial; count on the stated rates, not on these rows.

Preview:
What do the screens show for `CC1(C)NC(=O)N(c2ccc([N+](=O)[O-])c(C(F)(F)F)c2)C1=O`?
MCF10A rereplic: -2.0%&4.3%; SW480 rereplic: -5.9%&-12.9%; KB-V1 MDR tox: -15.2%; WRN helicase inh: -3.6%; IL1B secr inh: 6.0; KB-3-1 cytotox: 0.0%

Results for Cc1cccc(C)c1OCC(C)N (configuration not stated) ?
MCF10A rereplic: 1.8%&-6.5%; SW480 rereplic: -1.2%&10.6%; KB-V1 MDR tox: -0.5%; WRN helicase inh: 8.3%; IL1B secr inh: -24.1; KB-3-1 cytotox: 0.0%

Results, from the first entry:
What do the screens show for `CC1(C)NC(=O)N(c2ccc([N+](=O)[O-])c(C(F)(F)F)c2)C1=O`?
MCF10A rereplic: -2.0%&4.3%; SW480 rereplic: -5.9%&-12.9%; KB-V1 MDR tox: -15.2%; WRN helicase inh: -3.6%; IL1B secr inh: 6.0; KB-3-1 cytotox: 0.0%

Results for Cc1cccc(C)c1OCC(C)N (configuration not stated) ?
MCF10A rereplic: 1.8%&-6.5%; SW480 rereplic: -1.2%&10.6%; KB-V1 MDR tox: -0.5%; WRN helicase inh: 8.3%; IL1B secr inh: -24.1; KB-3-1 cytotox: 0.0%

How did CC1(C)S[C@@H]2[C@H](NC(=O)C3(N)CCCCC3)C(=O)N2[C@H]1C(=O)O do in these assays?
MCF10A rereplic: 1.6%; SW480 rereplic: -4.1%

Results for NC(=O)c1ccccc1 ?
MCF10A rereplic: -8.5%; SW480 rereplic: inconclusive; KB-V1 MDR tox: -6.5%; WRN helicase inh: 4.9%; IL1B secr inh: 25.1; KB-3-1 cytotox: 0.0%

Results for Cc1cnc(NS(=O)(=O)c2ccccc2)c(C)n1 ?
MCF10A rereplic: -6.4%; SW480 rereplic: -11.5%; KB-V1 MDR tox: inconclusive; WRN helicase inh: 7.3%; IL1B secr inh: 0.0; KB-3-1 cytotox: 3.3%

How did O=C1CC[C@@H](C(=O)O)N1 do in these assays?
MCF10A rereplic: -7.1%&-5.2%; SW480 rereplic: 11.2%&-3.8%; KB-V1 MDR tox: 15.9%; WRN helicase inh: -0.6%; IL1B secr inh: 1.0; KB-3-1 cytotox: 0.0%

What do the screens show for `OC[C@H]1O[C@@H]2O[C@H]3[C@H](O)[C@@H](O)[C@@H](O[C@H]4[C@H](O)[C@@H](O)[C@@H](O[C@H]5[C@H](O)[C@@H](O)[C@@H](O[C@H]6[C@H](O)[C@@H](O)[C@@H](O[C@H]7[C@H](O)[C@@H](O)[C@@H](O[C@H]1[C@H](O)[C@H]2O)O[C@@H]7CO)O[C@@H]6CO)O[C@@H]5CO)O[C@@H]4CO)O[C@@H]3CO`?
MCF10A rereplic: inconclusive; SW480 rereplic: -2.9%&-3.0%; KB-V1 MDR tox: 22.9%; WRN helicase inh: 0.8%; IL1B secr inh: 6.5; KB-3-1 cytotox: 0.0%

Results for COc1ccc(CCN2CCC(Nc3nc4ccccc4n3Cc3ccc(F)cc3)CC2)cc1 ?
MCF10A rereplic: 4.61µM*; SW480 rereplic: 3.66µM*!; KB-V1 MDR tox: 20.6µM*; WRN helicase inh: 3.4%; IL1B secr inh: -67.1*; KB-3-1 cytotox: inconclusive

Results for O=C(O)Cc1cccc2ccccc12 ?
MCF10A rereplic: 9.9%&-9.4%; SW480 rereplic: inconclusive; KB-V1 MDR tox: 17.9%; WRN helicase inh: -5.9%; IL1B secr inh: -15.0; KB-3-1 cytotox: 0.0%

Results for COc1ccccc1C(=O)NC1CCCc2ccccc21 (configuration not stated) ?
MCF10A rereplic: 7.0%; SW480 rereplic: -18.5%; KB-V1 MDR tox: -25.2%; WRN helicase inh: -13.0%; IL1B secr inh: 12.2; KB-3-1 cytotox: -1.3%

How did Nc1ccn([C@@H]2CS[C@H](CO)O2)c(=O)n1 do in these assays?
MCF10A rereplic: 10.1%&-8.9%; SW480 rereplic: 0.6%&-2.1%

How did [O-][n+]1ccccc1SSc1cccc[n+]1[O-] do in these assays?
MCF10A rereplic: inconclusive; SW480 rereplic: inconclusive

What do the screens show for `Cc1ccc(C(C)C)cc2c(C)ccc1-2`?
MCF10A rereplic: -41.9%&1.4%[inhibitor]; SW480 rereplic: -10.2%&-3.4%; KB-V1 MDR tox: 10.7%; WRN helicase inh: 3.5%; IL1B secr inh: -18.8; KB-3-1 cytotox: 0.0%

Results for CC(=O)OCC(=O)[C@@]1(O)[C@H](C)C[C@H]2[C@@H]3CCC4=CC(=O)C=C[C@]4(C)[C@@]3(F)[C@@H](O)C[C@@]21C ?
MCF10A rereplic: 21.2%&-0.6%; SW480 rereplic: -2.0%&-0.2%; KB-V1 MDR tox: -22.0%; WRN helicase inh: -2.0%; IL1B secr inh: 0.0; KB-3-1 cytotox: 0.0%

Results for CC(C)(C)OC(=O)NC(Cc1ccccc1)C(=O)O (configuration not stated) ?
MCF10A rereplic: 9.4%; SW480 rereplic: -14.8%; KB-V1 MDR tox: 26.9%; WRN helicase inh: -3.3%; IL1B secr inh: 14.4; KB-3-1 cytotox: 12.2%

What do the screens show for `O=[N+]([O-])c1cc(S(=O)(=O)Nc2ccccc2)ccc1Nc1ccccc1`?
MCF10A rereplic: inconclusive; SW480 rereplic: -5.4%; KB-V1 MDR tox: inconclusive; WRN helicase inh: -15.6%; IL1B secr inh: -9.3; KB-3-1 cytotox: inconclusive

What do the screens show for `CSc1nc2ccccc2s1`?
MCF10A rereplic: -0.8%; SW480 rereplic: -7.7%; KB-V1 MDR tox: -6.0%; WRN helicase inh: -4.6%; IL1B secr inh: 3.7; KB-3-1 cytotox: inconclusive

What do the screens show for `CNCCCC12CCC(c3ccccc31)c1ccccc12`?
MCF10A rereplic: inconclusive; SW480 rereplic: inconclusive; KB-V1 MDR tox: inconclusive; WRN helicase inh: 11.8%&7.3%&3.0%; IL1B secr inh: -56.1*!; KB-3-1 cytotox: inconclusive

Results for CCCCC[C@H](O)/C=C/[C@H]1[C@H](O)CC(=O)[C@@H]1C/C=C\CCCC(=O)O ?
MCF10A rereplic: inconclusive; SW480 rereplic: -4.1%

How did COC(=O)Nc1nc2ccc(C(=O)c3cccs3)cc2[nH]1 do in these assays?
MCF10A rereplic: 0.211µM*; SW480 rereplic: 0.237µM*; KB-V1 MDR tox: 0.13µM*; WRN helicase inh: 2.9%; IL1B secr inh: 77.6; KB-3-1 cytotox: 0.0146µM*

Results for Nc1cccc(O)c1 ?
MCF10A rereplic: inconclusive; SW480 rereplic: 11.6%; KB-V1 MDR tox: -1.0%; WRN helicase inh: 2.4%; IL1B secr inh: 7.7; KB-3-1 cytotox: 0.0%

What do the screens show for `CNCC(O)c1ccc(O)c(O)c1` (configuration not stated)?
MCF10A rereplic: -22.4%; SW480 rereplic: -80.2%[inhibitor]; KB-V1 MDR tox: 21.4%; WRN helicase inh: -1.1%; IL1B secr inh: -23.4; KB-3-1 cytotox: 0.0%

What do the screens show for `CC(=O)OC(C)=O`?
MCF10A rereplic: 4.6%; SW480 rereplic: 11.0%; KB-V1 MDR tox: 10.7%; WRN helicase inh: 6.8%; IL1B secr inh: -5.9; KB-3-1 cytotox: 0.0%

How did COC1=CC(=O)CC(C)C12Oc1c(Cl)c(OC)cc(OC)c1C2=O (configuration not stated) do in these assays?
MCF10A rereplic: inconclusive; SW480 rereplic: 23.1µM*!; KB-V1 MDR tox: inconclusive; WRN helicase inh: 20.4%; IL1B secr inh: -15.2; KB-3-1 cytotox: inconclusive

Results for CCN(CC)CCOC(=O)C(c1ccccc1)C1CCCCC1 (configuration not stated) ?
MCF10A rereplic: -1.1%&1.7%; SW480 rereplic: -14.6%&1.4%; KB-V1 MDR tox: inconclusive; WRN helicase inh: -6.1%; IL1B secr inh: -18.0; KB-3-1 cytotox: 0.0%

Results for CCOC(=O)c1cc2c(ccc3ccccc32)oc1=O ?
MCF10A rereplic: -15.1%; SW480 rereplic: -35.8%[inhibitor]; KB-V1 MDR tox: 0.3%; WRN helicase inh: -3.9%; IL1B secr inh: 13.8; KB-3-1 cytotox: 2.6%

Results for CNCCC=C1c2ccccc2CCc2ccccc21 ?
MCF10A rereplic: inconclusive; SW480 rereplic: -76.7%&1.2%[inhibitor]; KB-V1 MDR tox: 20.6µM*; WRN helicase inh: -10.6%; IL1B secr inh: -64.3*; KB-3-1 cytotox: -3.2%

Results for NC(N)=NC(N)=NCCc1ccccc1 ?
MCF10A rereplic: 21.7%; SW480 rereplic: -6.7%; KB-V1 MDR tox: -22.7%; WRN helicase inh: 5.2%; IL1B secr inh: 48.8; KB-3-1 cytotox: -1.1%

How did Cc1cc(=O)c2ccccc2[nH]1 do in these assays?
MCF10A rereplic: -1.0%; SW480 rereplic: 1.6%; KB-V1 MDR tox: -1.3%; WRN helicase inh: -3.1%; IL1B secr inh: 20.9; KB-3-1 cytotox: -15.8%

Results for CC(C)COCC(CN(Cc1ccccc1)c1ccccc1)N1CCCC1 (configuration not stated) ?
MCF10A rereplic: 1.4%; SW480 rereplic: 0.5%; KB-V1 MDR tox: 18.4µM*; WRN helicase inh: 1.5%; IL1B secr inh: -82.6*; KB-3-1 cytotox: -0.1%

Results for CN(C)CCCN1c2ccccc2CCc2ccc(Cl)cc21 ?
MCF10A rereplic: inconclusive; SW480 rereplic: inconclusive; KB-V1 MDR tox: inconclusive; WRN helicase inh: 4.4%; IL1B secr inh: inconclusive; KB-3-1 cytotox: 0.0%

Results for CC[C@H]1OC(=O)[C@H](C)[C@@H](O[C@H]2C[C@@](C)(OC)[C@@H](O)[C@H](C)O2)[C@H](C)[C@@H](O[C@@H]2O[C@H](C)C[C@H](N(C)C)[C@H]2O)[C@](C)(O)C[C@@H](C)CN(C)[C@H](C)[C@@H](O)[C@]1(C)O ?
MCF10A rereplic: inconclusive; SW480 rereplic: 10.6%&2.3%; KB-V1 MDR tox: 11.4%; WRN helicase inh: -12.9%; IL1B secr inh: inconclusive; KB-3-1 cytotox: 0.0%

Results for CN1CCN(CCC=C2c3ccccc3Sc3ccc(S(=O)(=O)N(C)C)cc32)CC1 ?
MCF10A rereplic: inconclusive; SW480 rereplic: -69.6%[inhibitor]; KB-V1 MDR tox: inconclusive; WRN helicase inh: -4.7%; IL1B secr inh: inconclusive; KB-3-1 cytotox: 0.0%

How did CN1[C@@H]2CC[C@H]1CC(OC(c1ccccc1)c1ccccc1)C2 (some centres not stated) do in these assays?
MCF10A rereplic: 10.6%&8.1%; SW480 rereplic: 9.2%&-3.6%

What do the screens show for `CNCCCC1c2ccccc2C=Cc2ccccc21`?
MCF10A rereplic: inconclusive; SW480 rereplic: inconclusive; KB-V1 MDR tox: inconclusive; WRN helicase inh: 0.3%; IL1B secr inh: 0.0; KB-3-1 cytotox: -3.6%

What do the screens show for `COc1ccc2nc(N)sc2c1`?
MCF10A rereplic: 0.1%; SW480 rereplic: -11.7%; KB-V1 MDR tox: 6.5%; WRN helicase inh: -4.3%; IL1B secr inh: 23.3; KB-3-1 cytotox: inconclusive

Results for Cc1cc2nc(N)sc2cc1C ?
MCF10A rereplic: -3.8%; SW480 rereplic: -6.8%; KB-V1 MDR tox: 19.3%; WRN helicase inh: -4.4%; IL1B secr inh: -12.3; KB-3-1 cytotox: 2.0%

Compound activity as filed in PubChem BioAssay.
